FGF22 binding = binders of human FGF22 protein, primary screen, FGF22 synaptogenesis inhibitor project, biophysical, thermal shift, single point; recombinant FGF22 thermal shift, SYPRO orange fluorescence; percent of sucrose octasulfate shift, DMSO zero; actives 1.5% (n = 340,000); calls only at 9.99 µM; Fibroblast growth factor 22 (Homo sapiens), Q9HCT0; AID 651658, 2012;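 active = melting point raised past a set limit in the mean and every replicate; three in four hits are not shown here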
Target sequence (Q9HCT0 whole entry, looked up): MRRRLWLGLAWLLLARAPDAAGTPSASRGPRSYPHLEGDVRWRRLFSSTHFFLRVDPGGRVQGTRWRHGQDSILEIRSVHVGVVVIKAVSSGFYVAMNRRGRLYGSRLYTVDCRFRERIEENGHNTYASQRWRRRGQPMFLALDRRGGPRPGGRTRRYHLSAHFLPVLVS
Calls only; i = inactive. This is a subset (hit frequency here may not be typical).

SMILES | FGF22 binding
COc1ccc(-c2ccccc2[C@H]2[C@@H](C#N)N(C(=O)NC(C)C)[C@H]2CO)cc1 | i
CCNC(=O)C[C@@H]1CC[C@@H]2[C@H](COC[C@@H](O)CN2C(=O)c2cc(Cl)cc(Cl)c2)O1 | i
O=C(C[C@@H]1C=C[C@H](NC(=O)Nc2ccc3c(c2)OCO3)[C@@H](CO)O1)NCc1ccc(Cl)cc1 | i
C[C@@H]1CN([C@H](C)CO)C(=O)c2cccc(N(C)C)c2O[C@H]1CN(C)Cc1ccc2c(c1)OCO2 | i
CCNC(=O)C[C@@H]1CC[C@H]2[C@H](COc3ccc(NC(=O)c4cccc(OC)c4)cc3C(=O)N2C)O1 | i
C[C@@H]1CN([C@H](C)CO)C(=O)Cc2cc(NC(=O)CCN3CCOCC3)ccc2O[C@@H]1CN(C)Cc1ccccc1 | i
CCC(=O)N(C)C[C@H]1Oc2cc(C#CCOC)ccc2S(=O)(=O)N([C@H](C)CO)C[C@@H]1C | i
COC(=O)Cc1nnn2c1[C@H](C)[C@@H](OC)c1ccc(C(F)(F)F)cc1-2 | i
C[C@@H]1CCCCO[C@H](CN(C)C(=O)NC2CCCCC2)[C@@H](C)CN([C@H](C)CO)C(=O)c2cc(NC(=O)Nc3ccc4c(c3)OCO4)ccc2O1 | i
C[C@@H]1CN([C@@H](C)CO)C(=O)c2cccc(NS(=O)(=O)c3ccc(Cl)cc3)c2O[C@@H]1CN(C)CC1CC1 | i
C[C@@H]1CCCCO[C@H](CN(C)C(=O)CCC(F)(F)F)[C@H](C)CN([C@H](C)CO)C(=O)c2cc(NC(=O)c3ccccc3)ccc2O1 | i
CN(C)CC(=O)NC[C@H]1N[C@@H](CO)[C@H]1c1ccc(-c2cccc(C#N)c2)cc1 | i
CO[C@@H]1CN(C)C(=O)c2cc(NS(=O)(=O)CC(F)(F)F)ccc2OC[C@@H](C)N(Cc2ccccn2)C[C@@H]1C | i
CN(C)CC(=O)N[C@@H]1CC[C@H](CC(=O)NCc2ccccc2F)O[C@H]1CO | i
Cc1ccc(S(=O)(=O)N(C)C[C@H]2Oc3ncc(-c4ccncc4)cc3C(=O)N([C@@H](C)CO)C[C@@H]2C)cc1 | i
C[C@@H]1CN([C@H](C)CO)C(=O)c2cc(NC(=O)C3CC3)ccc2O[C@@H]1CN(C)C(=O)Nc1ccc(C(F)(F)F)cc1 | i
CN(C)C(=O)C[C@@H]1CC[C@H]2[C@@H](COC[C@H](O)CN2C(=O)c2ccncc2)O1 | i
O=C(Nc1ccc(Cl)c(Cl)c1)N[C@H]1CC[C@H](CCNC(=O)c2ccc(F)cc2)O[C@H]1CO | i
COC(=O)[C@H]1[C@H](CO)[C@H]2Cn3c(ccc(-c4ccc(OC)cc4)c3=O)[C@H]2N1C | i
COCC(=O)N(C)C[C@@H]1Oc2cc(C#CCN(C)C)ccc2S(=O)(=O)N([C@H](C)CO)C[C@@H]1C | i
Cc1ccccc1C(=O)N(C)[C@H]1C[C@H]2c3[nH]c4c(-c5ccccc5)cccc4c3CCN2C(=O)[C@H]1[C@H](C)O | i
C[C@@H]1CCCCO[C@H](CN(C)Cc2ccc(C(F)(F)F)cc2)[C@@H](C)CN([C@H](C)CO)C(=O)c2cc(NS(=O)(=O)c3cccs3)ccc2O1 | i
O=C(NN=Cc1ccccc1O)C(=O)Nc1ccc(F)cc1 | i
CN1C(=O)c2cc(NC(=O)NC3CCCC3)ccc2OC[C@@H]2O[C@@H](CC(=O)NCC3CC3)CC[C@@H]21 | i
CCCNC(=O)N[C@@H]1CC[C@@H](CCn2cc(C3CCCC3)nn2)O[C@@H]1CO | i
COCC(=O)N1CC2(C1)[C@H](c1ccc(-c3ccccc3)cc1)[C@@H](CO)N2C(=O)COC | i
CCNC(=O)C[C@H]1CC[C@@H]2[C@H](COc3ccc(NC(=O)c4cccs4)cc3C(=O)N2C)O1 | i
COCCN(C[C@H]1N[C@H](CO)[C@H]1c1ccc(-c2cccc(F)c2)cc1)C(C)=O | i
C[C@@H]1CCCCO[C@@H](CN(C)S(C)(=O)=O)[C@@H](C)CN([C@@H](C)CO)C(=O)c2cc(NC(=O)CCC(F)(F)F)ccc2O1 | i
CC(C)C#Cc1cnc2c(c1)C(=O)N([C@H](C)CO)C[C@H](C)[C@H](CN(C)C(=O)c1cccc(F)c1)O2 | i
C[C@H]1CN([C@@H](C)CO)C(=O)Cc2cc(NC(=O)Cn3cnnn3)ccc2O[C@H]1CN(C)S(=O)(=O)c1cn(C)cn1 | i
C/C=C/c1cnc2c(c1)C(=O)N([C@@H](C)CO)C[C@H](C)[C@H](CN(C)C(=O)c1cccc(F)c1)O2 | i
C[C@@H]1CN([C@H](C)CO)C(=O)c2cc(NC(=O)C3CCCCC3)ccc2O[C@H]1CN(C)Cc1ccc2c(c1)OCO2 | i
COc1ccc(S(=O)(=O)Nc2ccc3c(c2)C(=O)N([C@@H](C)CO)C[C@@H](C)[C@H](CN(C)Cc2ccc(C(=O)Nc4ccccc4N)cc2)OCCCC[C@@H](C)O3)cc1 | i
C[C@H](CO)N1C[C@H](C)[C@H](CN(C)S(=O)(=O)c2ccccc2)OCCCC[C@H](C)Oc2ccc(NC(=O)Nc3ccc4c(c3)OCO4)cc2C1=O | i
C[C@H]1CN([C@@H](C)CO)C(=O)c2cccc(NC(=O)Nc3ccc(F)cc3)c2O[C@@H]1CN(C)Cc1ccc(C(=O)Nc2ccccc2N)cc1 | i
CCN(C[C@H]1N[C@@H](CO)[C@@H]1c1ccccc1)C(=O)c1ccncc1 | i
COc1ccc(-c2ccc([C@@H]3[C@@H](CO)N(C(=O)c4cccnc4)[C@H]3C#N)cc2)cc1 | i
CC(NC(=O)C=Cc1ccco1)C(=O)NC(Cc1ccccc1)C(N)=O (stereo unspecified) | i
COc1cc(CN2CC3(CCN(C(C)=O)CC3)c3c([nH]c4cc(OC)ccc34)[C@H]2CO)cc(OC)c1 | i
C[C@H]1CN([C@@H](C)CO)C(=O)c2cccc(NC(=O)C3CCOCC3)c2O[C@H]1CN(C)C(=O)Nc1ccccc1 | i
CO[C@H](CN(C)CC1CCOCC1)[C@H](C)CN(C(=O)Nc1ccc(F)cc1)[C@H](C)CO | i
CS(=O)(=O)N1[C@@H](C#N)[C@@H](c2ccc(C#Cc3cccc(F)c3)cc2)[C@@H]1CO | i
C[C@@H]1CCCCO[C@@H](CN(C)C(=O)c2ccccc2)[C@H](C)CN([C@@H](C)CO)C(=O)c2cc(NC(=O)Nc3ccccc3)ccc2O1 | i
COCC(=O)N1CCCCN2[C@H](C1)[C@H](c1ccc(C#Cc3cccnc3)cc1)[C@@H]2CO | i
C[C@H](CO)N1C[C@H](C)[C@@H](CN(C)C(=O)C2CCCCC2)Oc2ncc(Br)cc2C1=O | i
CN1c2ccc(C#Cc3cccnc3)cc2[C@H]2[C@H](CCN2C(=O)CN2CCOCC2)[C@@H]1CO | i
CO[C@H]1CN(C)C(=O)c2cc(NC(=O)C3CCC3)ccc2OC[C@@H](C)N(C(=O)NC(C)C)C[C@@H]1C | i
CC(C)NC(=O)N1CC2(C1)[C@H](c1ccccc1)[C@H](CO)N2CCC(F)(F)F | i
N#C[C@@H]1[C@H](c2ccccc2-c2cccc(F)c2)[C@H](CO)N1C(=O)CN1CCOCC1 | i
C[C@@H]1CCCCO[C@@H](CN(C)Cc2ccc3c(c2)OCO3)[C@@H](C)CN([C@H](C)CO)C(=O)c2cc(NC(=O)Cc3ccccc3)ccc2O1 | i
C[C@H]1CN([C@@H](C)CO)C(=O)Cc2cc(NC(=O)Nc3ccc(F)cc3)ccc2O[C@@H]1CN(C)CC1CC1 | i
CN(C)C(=O)[C@H]1[C@H](CO)[C@H]2Cn3c(ccc(C4=CCCC4)c3=O)[C@@H]1N2C(=O)c1ccccc1 | i
O=C(C[C@H]1CC[C@H]2NC[C@@H](O)COC[C@@H]2O1)N1CCc2ccccc2C1 | i
C[C@@H]1CN([C@H](C)CO)S(=O)(=O)c2ccc(C#Cc3ccccc3)cc2O[C@@H]1CN(C)C(=O)Cc1ccccn1 | i
C[C@H]1CN([C@@H](C)CO)C(=O)c2cccc(NC(=O)c3ccc(-c4nccs4)cc3)c2O[C@H]1CN(C)C(=O)Nc1cccc2ccccc12 | i
CNC[C@@H]1OCCCC[C@H](C)Oc2ccc(NC(=O)NC3CCCCC3)cc2C(=O)N([C@@H](C)CO)C[C@@H]1C | i
C[C@@H]1CN([C@H](C)CO)C(=O)c2cc(-c3cccc(C(=O)N(C)C)c3)cnc2O[C@@H]1CN(C)S(=O)(=O)c1cccc(F)c1 | i
COc1ccccc1CNC(=O)C[C@H]1C[C@H]2c3cc(NC(=O)CN(C)C)ccc3O[C@H]2[C@@H](CO)O1 | i
C[C@H](CO)N1C[C@H](C)[C@H](CN(C)C(=O)c2cccc(F)c2)Oc2ncc(C#CCN(C)C)cc2C1=O | i

4 of the compounds above, with each value named.
O=C(C[C@H]1CC[C@H]2NC[C@@H](O)COC[C@@H]2O1)N1CCc2ccccc2C1
  FGF22 binding: i
C[C@@H]1CN([C@H](C)CO)S(=O)(=O)c2ccc(C#Cc3ccccc3)cc2O[C@@H]1CN(C)C(=O)Cc1ccccn1
  FGF22 binding: i
C[C@H]1CN([C@@H](C)CO)C(=O)c2cccc(NC(=O)c3ccc(-c4nccs4)cc3)c2O[C@H]1CN(C)C(=O)Nc1cccc2ccccc12
  FGF22 binding: i
CNC[C@@H]1OCCCC[C@H](C)Oc2ccc(NC(=O)NC3CCCCC3)cc2C(=O)N([C@@H](C)CO)C[C@@H]1C
  FGF22 binding: i

By substructure: the entries above containing a cyano group (five)
SMILES | FGF22 binding
COc1ccc(-c2ccccc2[C@H]2[C@@H](C#N)N(C(=O)NC(C)C)[C@H]2CO)cc1 | i
CN(C)CC(=O)NC[C@H]1N[C@@H](CO)[C@H]1c1ccc(-c2cccc(C#N)c2)cc1 | i
COc1ccc(-c2ccc([C@@H]3[C@@H](CO)N(C(=O)c4cccnc4)[C@H]3C#N)cc2)cc1 | i
CS(=O)(=O)N1[C@@H](C#N)[C@@H](c2ccc(C#Cc3cccc(F)c3)cc2)[C@@H]1CO | i
N#C[C@@H]1[C@H](c2ccccc2-c2cccc(F)c2)[C@H](CO)N1C(=O)CN1CCOCC1 | i

Carrying on:
SMILES | FGF22 binding
COc1ccc(CN(C)C[C@H]2Oc3ccc(NC(=O)C4CCCCC4)cc3CC(=O)N([C@H](C)CO)C[C@@H]2C)cc1 | i
C[C@@H]1CN([C@H](C)CO)C(=O)c2c(c3ccccc3n2C)-c2ccccc2CO[C@@H]1CN(C)C | i
COc1cccc(S(=O)(=O)N[C@H]2CC[C@@H](CC(=O)NCc3ccncc3)O[C@@H]2CO)c1 | i
C[C@@H]1CN([C@@H](C)CO)C(=O)c2cccc(NS(=O)(=O)c3cn(C)cn3)c2O[C@@H]1CN(C)CC1CC1 | i
CNC[C@H]1OCCCC[C@H](C)Oc2ccc(NC(=O)NC(C)C)cc2C(=O)N([C@@H](C)CO)C[C@H]1C | i
O=C(Nc1ccc(Cl)c(Cl)c1)N[C@H]1CC[C@@H](CCNC(=O)c2ccc(F)cc2)O[C@@H]1CO | i
CO[C@H]1CC[C@H]2CCOc3ccc(C#N)cc3C(=O)N(C)C[C@@H](OC)[C@H](C)C(=O)N(C)C[C@H]1O2 | i
COc1ccc2c3c(n(C)c2c1)[C@@H](CO)N(Cc1ccccc1F)CC31CN(C(=O)C2CCCC2)C1 | i
O=C(C[C@H]1C=C[C@H](NC(=O)Nc2cc(F)ccc2F)[C@H](CO)O1)Nc1ccccc1 | i
O=C(c1ccccn1)N1CC2(C1)[C@@H](c1ccccc1)[C@@H](CO)N2C(=O)CC1CC1 | i
C[C@@H]1CN([C@H](C)CO)C(=O)c2cc(C#CC3CCCC3)cnc2O[C@@H]1CN(C)S(=O)(=O)c1cccc(F)c1 | i
COc1cccc(S(=O)(=O)N(C)C[C@@H]2OCc3ccccc3-c3ccccc3C(=O)N([C@@H](C)CO)C[C@H]2C)c1 | i
CCN1[C@@H]2c3ccc(/C=C/c4ccccc4)c(=O)n3C[C@@H]2[C@@H](CO)[C@@H]1C(=O)Nc1nccs1 | i
COCC(=O)Nc1ccc2c(c1)OC[C@@H](C)N(C(C)=O)C[C@@H](C)[C@@H](OC)CN(C)C2=O | i
O=C(C[C@@H]1CC[C@H]2[C@@H](COC[C@@H](O)CN2C(=O)c2cnccn2)O1)NCc1ccc(Oc2ccccc2)cc1 | i
COc1ccc(NC(=O)N2CCC3(CC2)CN(CC2CC2)[C@H](CO)c2c3c3ccc(OC)cc3n2C)cc1 | i
COc1ccc(S(=O)(=O)Nc2ccc3c(c2)CC(=O)N([C@H](C)CO)C[C@@H](C)[C@@H](CN(C)C(=O)Nc2cccc4ccccc24)O3)cc1 | i
Cc1noc(C)c1NC(=O)Nc1cccc2c1O[C@@H](CN(C)C(=O)NC(C)C)[C@@H](C)CN([C@@H](C)CO)C2=O | i
C[C@@H]1CCCCO[C@@H](CN(C)CC2CCCCC2)[C@H](C)CN([C@@H](C)CO)C(=O)c2cc(NS(=O)(=O)c3cn(C)cn3)ccc2O1 | i
CS(=O)(=O)N1CCCCN2[C@H](C1)[C@@H](c1ccc(C#Cc3ccccn3)cc1)[C@@H]2CO | i
COc1cccc(-c2cnc3c(c2)C(=O)N([C@@H](C)CO)C[C@H](C)[C@H](CN(C)Cc2cccnc2)O3)c1 | i
O=C(C[C@H]1CC[C@@H](NC(=O)Nc2ccccc2)[C@@H](CO)O1)NCc1cccc(F)c1 | i
C[C@@H]1CN([C@@H](C)CO)C(=O)c2c(c3ccccc3n2C)-c2ccccc2CO[C@@H]1CN(C)C(=O)c1cc(Cl)cc(Cl)c1 | i
O=C(C[C@H]1CC[C@H]2[C@@H](COC[C@@H](O)CN2Cc2ccccc2)O1)N[C@H]1CCN(Cc2ccccc2)C1 | i
C[C@@H]1CN([C@H](C)CO)C(=O)c2cccc(NS(C)(=O)=O)c2O[C@H]1CN(C)C(=O)Nc1ccccc1 | i

Screening results as filed in PubChem.
